Vaccinia stage = Vaccinia orthopox stage-specific inhibition; Vaccinia-infected cells, mCherry/Venus stage reporter fluorescence; active compounds read low; some inactives read as strong as hits; 0.01% of 89,000 active; activity change (mCherry), % (test concentration not listed); AID 1053133;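 active = mCherry past -33% and 40 or more points under the early reporter, replicates agreeing; inconclusive = past -33% without that gap or agreement; tested in A549 cells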;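 note: scaled between vehicle wells and reference inhibitor wells; 23 nL library stock went into each well; one replicate is shown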
Vaccinia stage Venus = further read-out of Vaccinia stage, marked with its call; activity change (Venus), %; measured here: Venus reporter, other viral stage;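 negative = less Venus signal; first of two replicates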
Active calls of the source: *; ? = inconclusive; · = no result given; & = joins results of further samples. Only part of the results is shown, so the mix of outcomes need not match the whole.

SMILES	Vaccinia stage	Vaccinia stage Venus
CC(C)NC(=O)N(C)C[C@@H]1OCCCC[C@H](C)Oc2ccc(NS(=O)(=O)c3cccs3)cc2C(=O)N([C@H](C)CO)C[C@@H]1C	16.6	7.0
C[C@@H]1CN([C@H](C)CO)C(=O)c2cc(NC(=O)Cc3cn(C)c4ccccc34)ccc2O[C@H]1CN(C)Cc1ccc(-c2ccccc2)cc1	-27.7	-12.6
C[C@H](CO)N1C[C@H](C)[C@H](CN(C)C(=O)Nc2ccc(F)cc2)Oc2c(NC(=O)Nc3ccc(C(F)(F)F)cc3)cccc2C1=O	?	·
O=C(C[C@H]1C=C[C@H](NS(=O)(=O)c2ccccc2)[C@@H](CO)O1)N1CCC(Cc2ccccc2)CC1	-26.4	-21.6
CCCNC(=O)N1CC2(CCN(CC3CC3)CC2)c2c([nH]c3cc(OC)ccc23)[C@H]1CO	-3.6	-6.5
CN1CCCCN2[C@H](C1)[C@@H](c1ccc(-c3ccccc3)cc1)[C@@H]2CO	6.0	7.0
COc1cccc(NC(=O)N(C)C[C@H]2Oc3cc(C#CC4(O)CCCC4)ccc3S(=O)(=O)N([C@@H](C)CO)C[C@H]2C)c1	-5.4	-17.4
C[C@@H]1CN([C@@H](C)CO)C(=O)Cc2cc(NC(=O)Cn3cnnn3)ccc2O[C@H]1CN(C)Cc1ccncc1	0.2	-4.7
O=C(C[C@H]1C=C[C@H](NC(=O)c2cccc(F)c2)[C@@H](CO)O1)NCc1ccc(Oc2ccccc2)cc1	3.4	3.7
COc1cccc(-c2cccc(-c3nc(C(=O)NCc4ccc(Oc5ccccc5)cc4)cc4c3[C@@H](CCO)N(S(=O)C(C)(C)C)C4)c2)c1 (stereo partly drawn)	-0.8	8.9
C[C@@H]1CN([C@@H](C)CO)C(=O)c2cc(C#Cc3ccccc3)cnc2O[C@@H]1CN(C)C(=O)CCN1CCCCC1	?	·
C[C@@H]1CN([C@@H](C)CO)C(=O)c2cc(NS(=O)(=O)c3cccs3)ccc2O[C@H]1CN(C)C(=O)Nc1cccc2ccccc12	11.2	8.3
CC(C)c1cn(CC[C@@H]2CC[C@@H](NC(=O)C3CCC3)[C@@H](CO)O2)nn1	4.6	4.7
Cc1ccc(S(=O)(=O)N(C)C[C@@H]2Oc3ncc(/C=C/c4ccccc4)cc3C(=O)N([C@H](C)CO)C[C@@H]2C)cc1	-23.0	-15.7
Cc1ccccc1-c1ccc([C@H]2[C@H]3CN(C(=O)NC4CCCC4)CC(=O)N3[C@H]2CO)cc1	-29.7	-39.8
CCCNC(=O)C[C@H]1C[C@@H]2c3cc(NC(=O)Nc4ccccc4F)ccc3O[C@@H]2[C@H](CO)O1	0.3	5.4
C[C@H](CO)N1C[C@H](C)[C@@H](CN(C)Cc2ccc(Oc3ccccc3)cc2)Oc2ncc(-c3cccnc3)cc2C1=O	?	·
CN1[C@@H]2c3ccc(-c4cccc(F)c4)c(=O)n3C[C@@H]2[C@@H](CO)[C@@H]1C(=O)NCc1ccccn1	-9.3	-0.6
COc1ccc2c3c(n(C)c2c1)[C@H](CO)N(Cc1ccccc1)CC31CCN(C(=O)C2CC2)CC1	-4.3	2.8
CC(C)NC(=O)N(C)C[C@H]1Oc2ccc(NC(=O)Cc3cn(C)c4ccccc34)cc2CC(=O)N([C@@H](C)CO)C[C@H]1C	-2.6	-2.3
Cc1ccc(S(=O)(=O)Nc2ccc3c(c2)C(=O)N([C@H](C)CO)C[C@H](C)[C@@H](CN(C)C(=O)Nc2ccc(C(F)(F)F)cc2)OCCCC[C@@H](C)O3)cc1	-16.7	-17.8
CNC[C@@H]1Oc2c(NC(=O)Nc3ccc(F)cc3)cccc2C(=O)N([C@H](C)CO)C[C@H]1C	6.6	7.7
CCNC(=O)[C@@H]1[C@@H](CO)[C@@H]2Cn3c(cccc3=O)[C@@H]2N1Cc1ccccc1Cl	9.7	16.9
CN1c2ccc(Br)cc2[C@H]2[C@H](CCN2S(=O)(=O)c2ccccc2)[C@@H]1CO	-5.4	-1.2
CC(C)NC(=O)N(C)C[C@@H]1Oc2ccc(NC(=O)CCCN(C)C)cc2C(=O)N([C@@H](C)CO)C[C@@H]1C	4.1	-3.9
N#C[C@@H]1[C@H](c2ccccc2C2=CCCC2)[C@H](CO)N1C(=O)C1CCC1	3.6	3.4
C[C@@H]1CCCCO[C@@H](CN(C)S(=O)(=O)c2cn(C)cn2)[C@H](C)CN([C@H](C)CO)C(=O)c2cc(NS(=O)(=O)c3cccs3)ccc2O1	10.2	3.5
Cc1ccc(S(=O)(=O)N[C@@H]2CC[C@@H](CC(=O)NCc3ccncn3)O[C@H]2CO)cc1	11.7	14.3
CC(C)COC(=O)N(C)C[C@@H]1OCc2ccccc2-c2ccccc2C(=O)N([C@H](C)CO)C[C@H]1C	13.3	-8.4
CO[C@@H]1CN(C)C(=O)c2ccc(NS(=O)(=O)c3ccccc3)cc2OC[C@@H](C)N(Cc2cccnc2)C[C@H]1C	-2.9	2.9

New compounds follow
SMILES	Vaccinia stage	Vaccinia stage Venus
COc1ccc(CN(C)C[C@@H]2OCCCC[C@@H](C)Oc3ccc(NC(=O)CCCN(C)C)cc3C(=O)N([C@@H](C)CO)C[C@@H]2C)cc1	1.1	1.9
COCC#Cc1ccc([C@@H]2[C@H](CO)N3C(=O)CN(C(=O)C4CC4)C[C@@H]23)cc1	2.1	7.4
C[C@@H]1CN([C@H](C)CO)C(=O)c2cc(C#CCN(C)C)cnc2O[C@@H]1CN(C)S(=O)(=O)c1ccccc1	-18.4	-17.4
CC(C)NC(=O)N1[C@H](C#N)[C@H](c2ccc(C#CC3CCCCC3)cc2)[C@@H]1CO	?	·
C[C@H]1CN([C@@H](C)CO)C(=O)c2cc(NC(=O)Nc3ccc(F)cc3)ccc2O[C@H]1CN(C)Cc1ccccc1	-20.2	-12.2
O=C(C1CC1)N1[C@@H](CO)[C@@H]2c3ccccc3NC[C@@H]21	-0.3	0.2
CC(C)(C)[S@@](=O)N1Cc2cc(C(=O)N3CCc4ccccc4C3)nc(-c3cccc(-c4cncnc4)c3)c2[C@H]1CCO	18.9	42.3
C[C@@H]1CCCCO[C@@H](CN(C)S(=O)(=O)c2ccc(F)cc2)[C@@H](C)CN([C@H](C)CO)C(=O)c2cc(NC(=O)c3ccncc3)ccc2O1	-7.0	-11.8
C[C@@H]1CN([C@@H](C)CO)C(=O)c2c(c3ccccc3n2C)-c2ccccc2CO[C@@H]1CN(C)C(=O)Nc1ccc2c(c1)OCO2	-30.9	-22.3
O=C(N[C@@H]1CC[C@H](CCNS(=O)(=O)Cc2ccccc2)O[C@H]1CO)c1ccc2c(c1)OCO2	-12.2	-5.3
CCS(=O)(=O)N[C@H]1C=C[C@@H](CC(=O)NC2Cc3ccccc3C2)O[C@@H]1CO	-1.0	-0.9
COCC(=O)N1[C@H](CO)[C@H]2c3ccccc3N(C(=O)c3cccc(OC)c3)C[C@H]21	7.4	2.4
C[C@@H]1CN([C@H](C)CO)C(=O)c2cc(-c3ccccc3)cnc2O[C@H]1CN(C)C(=O)Cc1ccccc1	7.0	3.5
Cc1noc(C)c1NC(=O)Nc1cccc2c1O[C@@H](CN(C)C(=O)Nc1ccccc1)[C@H](C)CN([C@H](C)CO)C2=O	-1.3	1.0
CCC(=O)N1CCCCN2[C@@H](CO)[C@H](c3ccc(-c4cccc(C#N)c4)cc3)[C@@H]2C1	-0.2	-16.3
COc1ccc(NC(=O)Nc2cccc3c2O[C@@H](CN(C)C)[C@@H](C)CN([C@@H](C)CO)C3=O)cc1	2.8	3.7
COc1ccccc1CNC(=O)C[C@@H]1C[C@@H]2c3cc(NC(=O)Cc4ccncc4)ccc3O[C@@H]2[C@H](CO)O1	0.7	-2.4
Cc1noc(C)c1NC(=O)Nc1ccc2c(c1)CC(=O)N([C@@H](C)CO)C[C@H](C)[C@@H](CN(C)Cc1ccc(C(=O)Nc3ccccc3N)cc1)O2	11.6	10.9
C[C@@H]1CCCCO[C@H](CN(C)S(=O)(=O)c2ccc(F)cc2)[C@@H](C)CN([C@@H](C)CO)C(=O)c2cc(NS(=O)(=O)c3ccc(Cl)cc3)ccc2O1	-20.7	-14.7
C[C@@H]1CN([C@@H](C)CO)C(=O)c2cc(NC(=O)CCCN(C)C)ccc2O[C@@H]1CN(C)Cc1ccc(C(=O)O)cc1	13.6	8.8
O=C(C1CC1)N1CCCCN2[C@H](C1)[C@@H](c1ccc(-c3cccc(F)c3)cc1)[C@@H]2CO	-11.7	-17.1
Cc1noc(C)c1S(=O)(=O)N(C)C[C@H]1Oc2ccc(NS(=O)(=O)c3ccccc3)cc2CC(=O)N([C@H](C)CO)C[C@@H]1C	-2.7	-1.6
Cc1ccc(S(=O)(=O)N(C)C[C@H]2Oc3c(NC(=O)Nc4ccc(F)cc4)cccc3C(=O)N([C@@H](C)CO)C[C@H]2C)cc1	?	·
C[C@H](CO)N1C[C@H](C)[C@H](CN(C)S(=O)(=O)c2cccs2)OCCCC[C@H](C)Oc2ccc(NC(=O)Nc3ccc(C(F)(F)F)cc3)cc2C1=O	-4.8	4.3
Cc1noc(C)c1NC(=O)N(C)C[C@@H]1Oc2ccc(NC(=O)Cc3cn(C)c4ccccc34)cc2C(=O)N([C@@H](C)CO)C[C@H]1C	22.0	12.1
O=C(Cc1ccccn1)N1CCCCN2[C@H](CO)[C@H](c3ccc(C#Cc4ccccc4)cc3)[C@H]2C1	?	·
C[C@H]1CN([C@@H](C)CO)C(=O)c2cc(Br)cnc2O[C@@H]1CN(C)S(C)(=O)=O	24.3	10.1
CC(C)NC(=O)N(C)C[C@@H]1Oc2cc(C#Cc3ccc(F)cc3)ccc2S(=O)(=O)N([C@H](C)CO)C[C@H]1C	?	·
CC(C)C#Cc1ccc([C@@H]2[C@H](CO)N3CCCCN(C(=O)c4ccc(F)cc4)C[C@@H]23)cc1	?	·
OC[C@@H]1[C@H](c2ccc(C#CC3CC3)cc2)[C@@H]2CN(CCC(F)(F)F)CCCCN12	?	·

Later entries.
SMILES	Vaccinia stage	Vaccinia stage Venus
CCCNC(=O)Nc1ccc2c(c1)OC[C@@H](C)N(C(=O)c1ccccc1F)C[C@@H](C)[C@H](OC)CN(C)C2=O	0.9	1.5
CC(=O)N1CC[C@@H]2[C@H](CO)Nc3ccc(C#Cc4ccccc4F)cc3[C@@H]21	5.6	2.9
Cc1noc(C)c1NC(=O)N(C)C[C@H]1Oc2cc(C#CCC3CCCC3)ccc2S(=O)(=O)N([C@H](C)CO)C[C@H]1C	?	·
O=C(C1CCC1)N1CCCCN2[C@H](CO)[C@@H](c3ccc(C#CC4(O)CCCC4)cc3)[C@H]2C1	20.9	-1.6
c1ccc(-c2cc(CN3[C@@H]4CNC[C@H]3C4c3ccc(-c4ccncc4)cc3)no2)cc1 (stereo partly drawn)	-4.3	-8.0
COCC#Cc1ccc([C@H]2[C@@H](CO)N3C(=O)CN(C(=O)CN4CCOCC4)C[C@H]23)cc1	26.8	11.7
COCC(=O)N1C[C@H](C)[C@@H](OC)CN(C)C(=O)c2ccc(NC(=O)c3cnccn3)cc2OC[C@H]1C	1.5	7.8
O=C(C[C@H]1C[C@@H]2c3cc(NC(=O)Nc4ccc(C(F)(F)F)cc4)ccc3O[C@@H]2[C@@H](CO)O1)NCc1ccccn1	-31.2	-17.1
C[C@H]1CN([C@@H](C)CO)C(=O)Cc2cc(NC(=O)Cc3ccccc3)ccc2O[C@@H]1CN(C)Cc1ccc2c(c1)OCO2	-9.3	-4.3
C/C=C/c1ccc2c(c1)O[C@@H](CN(C)C(=O)c1ccc(F)cc1)[C@@H](C)CN([C@H](C)CO)S2(=O)=O	25.2&11.2	6.3&-8.3
O=C(CC1CC1)N1CC2(C1)[C@H](c1ccccc1)[C@H](CO)N2Cc1cccc(F)c1	-2.8	-4.9
CO[C@@H]1CN(C)C(=O)c2cc(NC(=O)c3ccc(F)cc3)ccc2OC[C@H](C)N(C)C[C@H]1C	1.8	0.3
C[C@H](CO)N1C[C@H](C)[C@@H](CN(C)Cc2ccc(Cl)c(Cl)c2)Oc2ccc(NS(C)(=O)=O)cc2C1=O	-31.7	-31.3
CCS(=O)(=O)Nc1ccc2c(c1)C(=O)N(C)C[C@@H](OC)[C@H](C)CN(C(=O)C1CCC1)[C@@H](C)CO2	19.9	14.6
CCCN1C[C@H](C)[C@H](OC)CN(C)C(=O)c2cc(NC(=O)C3CC3)ccc2OC[C@H]1C	4.6	3.5
O=C(c1cccc(F)c1)N1CC[C@@H]2[C@H](CO)Nc3ccc(-c4ccc(F)cc4)cc3[C@@H]21	-4.3	10.9
C[C@@H](NC(=O)C[C@H]1C[C@@H]2c3cc(NC(=O)NC4CCCC4)ccc3O[C@@H]2[C@@H](CO)O1)c1ccccc1	4.1	6.5
COc1ccc(CN(C)C[C@H]2OCCCC[C@@H](C)Oc3ccc(NC(=O)Nc4cccc5ccccc45)cc3C(=O)N([C@H](C)CO)C[C@H]2C)cc1	-25.6	-11.1
COc1ccc(S(=O)(=O)N(C)C[C@@H]2OCCCC[C@H](C)Oc3ccc(NS(=O)(=O)c4cn(C)cn4)cc3C(=O)N([C@@H](C)CO)C[C@@H]2C)cc1	19.3	10.7

Full records from above. Order of values: Vaccinia stage, Vaccinia stage Venus
Results for `COc1ccc(S(=O)(=O)N(C)C[C@@H]2OCCCC[C@H](C)Oc3ccc(NS(=O)(=O)c4cn(C)cn4)cc3C(=O)N([C@@H](C)CO)C[C@@H]2C)cc1` : 19.3, 10.7
Results for `COc1ccc(CN(C)C[C@H]2OCCCC[C@@H](C)Oc3ccc(NC(=O)Nc4cccc5ccccc45)cc3C(=O)N([C@H](C)CO)C[C@H]2C)cc1` : -25.6, -11.1
Results for `C[C@H](CO)N1C[C@H](C)[C@@H](CN(C)Cc2ccc(Cl)c(Cl)c2)Oc2ccc(NS(C)(=O)=O)cc2C1=O` : -31.7, -31.3

Source: PubChem (Broad Institute)
